Mtb MenB inh: Mtb MenB enzyme inhibition; AID 540299; 100,000 tested, 0.43% active; P9WNP5; MenB enzyme assay, absorbance read-out; some hits fall short of the stated cut; inhibition, %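 (about 12 µg/mL by stock and volumes)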;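 active = mean of two replicates above 30%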;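 also: 0% = no compound and 100% = wells with inactive enzyme; the first replicate is given; strong numbers were not always called active; inactives centre near -10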
MbtI inh: inhibitors of Mycobacterium tuberculosis siderophore enzyme MbtI | purified MbtI enzyme, fluorescence intensity read-out | inhibition, %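 (about 17 µg/mL by stock and volumes)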 | 100,000 tested, 0.89% active | P9WFX0;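 active = above 50% in both replicates, above 80% if mildly self-fluorescent; inactive = the rest, strongly fluorescent compounds included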;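 also: 0% = mean of negative and 100% = mean of positive controls; one replicate is shown; some compounds called inactive have numbers as strong as hits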
Target sequence (P9WFX0 whole entry, looked up): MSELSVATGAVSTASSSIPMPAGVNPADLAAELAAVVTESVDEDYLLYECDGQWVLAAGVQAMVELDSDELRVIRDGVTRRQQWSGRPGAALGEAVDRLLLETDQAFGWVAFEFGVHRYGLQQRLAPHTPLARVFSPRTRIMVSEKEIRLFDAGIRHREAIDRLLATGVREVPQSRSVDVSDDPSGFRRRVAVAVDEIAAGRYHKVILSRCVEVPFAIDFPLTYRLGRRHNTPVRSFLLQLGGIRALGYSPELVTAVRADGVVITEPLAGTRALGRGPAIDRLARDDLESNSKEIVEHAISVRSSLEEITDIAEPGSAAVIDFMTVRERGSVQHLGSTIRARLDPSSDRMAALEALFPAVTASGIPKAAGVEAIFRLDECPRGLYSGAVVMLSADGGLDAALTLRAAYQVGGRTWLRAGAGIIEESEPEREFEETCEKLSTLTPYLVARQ
PV pol inh: inhibitors of poliovirus RNA polymerase binding and polymerization; 150,000 tested, 0.66% active; P03300; % elongation, % (compound at 16.7 µg/mL); poliovirus polymerase elongation, fluorescence polarization; stronger effect = lower value; in the data active = % elongation below about 90%; also: some results filed as inactive read as strong as hits
Target sequence (P03300 1749-2209 limits assumed): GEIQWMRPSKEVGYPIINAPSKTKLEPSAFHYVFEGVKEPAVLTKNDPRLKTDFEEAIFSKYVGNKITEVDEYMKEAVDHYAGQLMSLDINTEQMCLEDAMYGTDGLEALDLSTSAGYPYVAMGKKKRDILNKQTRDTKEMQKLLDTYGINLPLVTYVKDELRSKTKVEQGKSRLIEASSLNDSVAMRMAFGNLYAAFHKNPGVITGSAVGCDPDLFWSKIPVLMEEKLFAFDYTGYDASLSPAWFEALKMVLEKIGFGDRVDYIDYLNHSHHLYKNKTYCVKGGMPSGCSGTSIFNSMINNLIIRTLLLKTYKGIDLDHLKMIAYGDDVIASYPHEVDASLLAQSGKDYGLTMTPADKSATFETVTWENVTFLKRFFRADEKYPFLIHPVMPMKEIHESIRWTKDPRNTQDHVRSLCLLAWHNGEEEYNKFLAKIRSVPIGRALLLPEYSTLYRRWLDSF
PV pol inh intensity: second read-out of PV pol inh, no call of its own (marks repeat the call); % elongation; measured here: total intensity read-out; formula for this scale not given here;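 total fluorescence in place of polarization; lower means less elongation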
Active calls of the source: *; i = inactive; . = no result given.

Each structure is followed by: PV pol inh intensity, MbtI inh, PV pol inh, Mtb MenB inh
- Cc1cc(C)n(NC(=S)NC2CCCC2)c(=O)c1C#N
    112, -3, 105, 1
- CNCc1ccc(Cl)c(Cl)c1
    103, -13, 100, -1
- CCc1cc2c(=O)n(Cc3ccco3)c(SC(C)C(=O)N3CCc4ccccc43)nc2s1 (configuration not stated)
    104, 5, 108, -20
- COc1cc(COC(=O)c2ccc3c(c2)S(=O)(=O)N=C2CCCCCN23)cc(OC)c1OC
    111, -6, 108, -19
- NC(=O)c1ccsc1NC(=O)CSc1ccc(S(=O)(=O)N2CCCCC2)cn1
    112, 5, 105, -16
- CSc1ncc(-c2ccc(Br)cc2)[nH]1
    100, 5, 99, 7
- O=C(c1cc2ccccc2oc1=O)N1CCSC1c1ccccc1 (configuration not stated)
    109, ., 106, -4
- O=C(COC(=O)c1ccncc1)Nc1cccc2ccccc12
    103, -6, 102, .
- CC(C)CCNC(=O)Nc1cn(C)c(=O)c2ccccc12
    101, -22, 100, -25
- S=c1[nH]nc(-c2cccnc2)n1Cc1ccccc1
    101, 12, 100, 0
- CC(=O)Nc1cccc(Oc2nnnn2-c2ccccc2)c1
    105, 0, 101, -40
- CCN1CCCC1CNC(=O)c1ccc2c(c1)sc1nc(-c3ccc(C)cc3)cn12 (configuration not stated)
    101, -21, 101, -4
- CCOC(=O)c1c(C(=O)OCC)c(C)n(N2C(=O)CSC2=S)c1C
    109, ., 107, 4
- O=C(Nc1cccc(C2=NCCN2)c1)Nc1cccc(C2=NCCN2)c1
    66*, ., 68*, 4
- CCC(=O)N/C(N)=N\c1nc(C)c2cc(OC)ccc2n1
    103, 39, 104, -4
- c1ccc(OCCNc2nnnn2-c2ccccc2)cc1
    102, 2, 103, -6
- O=C(CSc1nc2ccccc2c(=O)n1CCc1ccccc1)c1ccc(Cl)cc1
    104, 2, 100, 5
- CCOC(=O)C1=C(c2ccccc2)OC(N)=C(C#N)C1C1CCCCC1 (configuration not stated)
    102, -4, 105, -24
- CCOc1ccc(-c2nc(CSCC(=O)N3CCOCC3)c(C)o2)cc1
    104, -76, 104, -38
- NC(=O)COC(=O)COc1ccc(C(=O)c2ccccc2)cc1
    94, 13, 100, 4

Continued.
Each structure is followed by: PV pol inh intensity, MbtI inh, PV pol inh, Mtb MenB inh
- CCOC(=O)c1c(C)n(-c2ccc(C)cc2)c2ccc(OCC(O)CN3CCN(C)CC3)cc12 (configuration not stated)
    101, 73, 105, -25
- Cc1cccc2c1-c1sc(C(=O)NCCN(C)C3CCCCC3)cc1CO2
    106, 104, 102, -11
- O=C(OCC(=O)c1c[nH]c2ccccc12)c1ccc2c(=O)n3c(nc2c1)CCCCC3
    106, -4, 103, -25
- Cc1ccc(N(Cc2ccco2)C(=O)c2cccnc2)cc1
    94, -11, 100, .
- O=C1c2cccnc2C(=O)N1Cc1ccc(S(=O)(=O)N2CCCCC2)cc1
    105, -2, 100, 5
- O=c1[nH]c(=O)n(-c2ccccc2)c(O)c1C=Nc1ccc(S(=O)(=O)N2CCCCC2)cc1
    102, 4, 99, 7
- C#CCN1C(=O)C2(C(C(=O)OCC)=C(N)Oc3ccccc32)C2=C1CC(C)(C)CC2=O (configuration not stated)
    101, -6, 104, -51
- O=C(OCc1csc(-c2ccccc2)n1)C1CC(=O)N(Cc2ccco2)C1 (configuration not stated)
    107, -6, 107, -29
- N#Cc1ccc(-c2cccs2)nc1SCCOc1ccccc1
    109, ., 108, -19
- Cc1cc(/C=C2\SC(=Nc3ccc(N4CCOCC4)cc3)N(C)C2=O)c(C)n1-c1cccnc1
    104, 1, 104, -28
- O=C(COC(=O)c1ccccc1)c1cccc(C(F)(F)F)c1
    106, -5, 105, .
- Cc1ccc([C@H]2[C@@H](C#N)[C@H](C#N)N3CCCN23)cc1
    111, ., 102, 0
- CC(NS(=O)(=O)c1ccc(Cl)s1)C1CC2CCC1C2 (configuration not stated)
    104, -11, 102, -15
- COc1ccc(C2NS(=O)(=O)N=C3CCCN32)c(OC)c1 (configuration not stated)
    109, -31, 106, -13
- CSC1=NC(C)=C(C(=O)Nc2ccccc2)C2(CCCCC2)C1C(N)=O (configuration not stated)
    112, ., 110, -20
- O=C(CSc1ncnc2ccccc12)N(Cc1ccccc1)Cc1ccccc1
    106, -9, 101, .
- O=C(Cc1ccc(NC(=O)N2CCCCc3ccccc32)cc1)N1CCCCC1
    101, 8, 100, -4
- c1coc(CNC2=NCCC2)c1
    105, -3, 106, 13
- CCOc1ccccc1C(=O)NC1CCSC1=O (configuration not stated)
    101, 5, 101, 22
- COCc1cc(=O)[nH]c(SCC(=O)c2ccccc2)n1
    93, 5, 99, -6

Going on with the list.
Each structure is followed by: PV pol inh intensity, MbtI inh, PV pol inh, Mtb MenB inh
- CC(C)N1CCC(=O)NC1=O
    97, -31, 101, 22
- O=C1CC(c2ccccc2)CC2=C1CN(C1CCCCC1)CN2 (configuration not stated)
    100, 9, 102, -27
- CC1CCCN(C(=O)c2ccc3nc[nH]c3c2)C1 (configuration not stated)
    103, -8, 98, 9
- Cn1cccc1C(=O)NC(=O)CSc1cccc[n+]1[O-]
    120, -26, 111, -16
- N#Cc1nc2c(-c3nc4ccccc4s3)c(N)n(CC3CCCO3)c2nc1C#N (configuration not stated)
    107, ., 109, 3
- NC(=O)COC(=O)Cc1ccc(Cl)c(Cl)c1
    99, 0, 101, .
- COC(=O)CSc1ccc2nnc(-c3ccc(OC)cc3)n2n1
    102, 9, 104, -17
- Cn1c(/C(C#N)=C(\O)c2ccccc2)nc2ccccc21
    103, 11, 101, -19
- COc1cccc2c1Oc1ncccc1N(c1ccc(C(=O)NCc3ccc(C)o3)s1)C2
    101, 128, 101, -7
- C=CCn1c(SCC)nnc1-c1cccc(C)c1
    104, -5, 99, 1
- COc1ccccc1OCc1ccc(C(=O)OCC2CCCO2)o1 (configuration not stated)
    99, 8, 100, 18
- CCn1c(C)nc2cc(-c3nnc(Nc4ccc(Cl)cc4)s3)ccc21
    95, -2, 98, -3
- O=CNC1CCCc2c1[nH]c1ccc(F)cc21 (configuration not stated)
    98, ., 115, -25
- Cc1c(CN2CCN(c3ccccn3)CC2)sc2ccccc12
    105, -8, 106, 1
- O=C(COc1ccc(Br)cc1)Nc1cccc(-c2nc3ccccc3o2)c1
    101, 195, 101, -14
- O=C(O)c1ccc(-c2ccccc2)[nH]1
    105, ., 100, 5
- CC(=O)Oc1c(O)ccc2c(C)cc(=O)oc12
    102, -1, 102, -6
- Cc1ccc(S(=O)(=O)NC(C(=O)NC2CCCCC2)C(C)C)cc1 (configuration not stated)
    94, -2, 104, .
- CC1(C)CC(=O)C2=C(C1)N(Cc1ccco1)C1=C(C(=O)c3ccccc31)C2c1ccc(F)cc1 (configuration not stated)
    102, 14, 101, 16
- CCOC(=O)c1[nH]c(CSc2nnc(-c3ccncc3)n2CCOC)c(C(=O)OCC)c1C
    100, -2, 101, -4

Further structures
Each structure is followed by: PV pol inh intensity, MbtI inh, PV pol inh, Mtb MenB inh
- CCn1c(=O)n(-c2ccccc2)c(=O)c2c1c1cc(C)ccc1n2C
    108, -21, 103, 6
- Cc1ccc(S(=O)(=O)c2cc3c(=O)n4ccccc4nc3n(Cc3ccccc3)c2=N)cc1
    108, -3, 101, -17
- Fc1ccc(-c2cc3ncnc(NCc4cccs4)c3s2)cc1
    104, -14, 102, -16
- CN1C(=O)C2C=CC1C1C(=O)N(c3ccccc3)C(=O)C21 (configuration not stated)
    103, -6, 103, -57
- CCC1CCCCN1CCCNc1nc(=S)[nH]c2ccccc12 (configuration not stated)
    97, 17, 102, -16
- COC(=O)C(N)Cc1ccc(O)cc1 (configuration not stated)
    92, -5, 101, -3
- N#Cc1nn(-c2ccccc2)c(=O)n(Cc2ccccc2)c1=O
    104, -9, 101, -1
- CC(C)(C)C(=O)NC(=S)Nc1cccc(O)c1
    108, ., 109, -19
- CC(C)(C)C(=O)NC1CCN(CC(=O)N2CCCCCC2)CC1
    102, 0, 99, 15
- Cc1ccc(CC(C#N)Sc2nnc(C3COc4ccccc4O3)n2C)cc1 (configuration not stated)
    91, -6, 103, -21
- Clc1ccc(CNc2ccccn2)cc1
    103, 71, 102, 33
- COc1ccc(NC(=O)CSc2nnc(Cc3cccn3C)n2CCc2ccccc2)c(OC)c1
    103, -3, 101, -3
- O=C(NCc1ccccn1)c1ccc(Cn2cc(Br)cn2)o1
    97, -152, 103, 4
- O=C1NC2(CCCC2)C(=O)N1Cc1ccc(Br)cc1
    99, 4, 103, 9
- CC[N+]1=C(C)C(C)(C)c2cc(-c3ccccc3)ccc21
    144, 106, 122, -26
- O=C(/C=C/c1cccs1)N(Cc1ccccn1)c1nc2ccccc2s1
    99, -4, 100, -6
- COC(=O)c1ccc(OCC(O)CNCC2CCCO2)c(OC)c1 (configuration not stated)
    109, 3, 99, 4
- CCn1c(Sc2ncnc3c2sc2nc(C)cc(C)c23)nnc1-c1cccs1
    98, -14, 106, -3
- Cc1ccnc2nc(C(=O)OCC(=O)Nc3ccccc3)nn12
    102, -21, 99, 6
- COc1cccc(/C=C/C(=O)Nc2c(F)c(F)c(F)c(F)c2F)c1OC
    102, -33, 97, -4

Looked up one by one from the entries so far, 5 records:
Each structure is followed by: PV pol inh intensity, MbtI inh, PV pol inh, Mtb MenB inh
- Cc1ccc(S(=O)(=O)c2cc3c(=O)n4ccccc4nc3n(Cc3ccccc3)c2=N)cc1
    108, -3, 101, -17
- CC(C)(C)C(=O)NC(=S)Nc1cccc(O)c1
    108, ., 109, -19
- O=C(NCc1ccccn1)c1ccc(Cn2cc(Br)cn2)o1
    97, -152, 103, 4
- CC(C)(C)C(=O)NC1CCN(CC(=O)N2CCCCCC2)CC1
    102, 0, 99, 15
- COc1ccc(NC(=O)CSc2nnc(Cc3cccn3C)n2CCc2ccccc2)c(OC)c1
    103, -3, 101, -3

Additional records follow.
Each structure is followed by: PV pol inh intensity, MbtI inh, PV pol inh, Mtb MenB inh
- NS(=O)(=O)c1ccc(NC(=O)/C=C/c2ccc3c(c2)OCCO3)cc1
    105, 28, 101, -24
- CCCNC(=O)Cn1nc(C(F)(F)F)c2c1CCC2
    101, -4, 105, -69
- CCn1ccnc1P(=S)(N(C)C)N(C)C
    97, 8, 98, -20
- CC(Sc1nnc(COc2ccccc2)n1-c1ccccc1)C(=O)O (configuration not stated)
    101, -13, 100, 44*
- Cc1ccc(OCC2Cn3c(nc4c3c(=O)[nH]c(=O)n4C)O2)cc1C (configuration not stated)
    99, -12, 101, -28
- O=C(C[n+]1ccc(/C=N/O)cc1)N1CCCCC1
    107, 4, 101, 8
- COc1ccc2[nH]c(=O)c(CN(Cc3ccc(C)cc3)C(C)=O)cc2c1
    99, -44, 106, -33
- O=C(O)/C=C/c1ccco1
    99, 25, 101, -11
- COc1ccc(CCn2c(=O)c(C#N)cc3c(=O)n4cccc(C)c4nc32)cc1OC
    108, 0, 105, -24
- CCC(C)C(=O)Nc1ccc(-c2nnc(-c3ccccc3)o2)cc1 (configuration not stated)
    105, i, 102, -54
- Cc1cc(C)nc(SCc2nnc(SCC(=O)N3c4ccccc4Sc4ccc(Cl)cc43)o2)n1
    100, -21, 103, -12
- NC(=O)COC(=O)/C=C/c1cccc(Br)c1
    106, 1, 102, -17
- O=C1c2ccccc2C(=O)N1c1nc(-c2cccs2)cs1
    99, -11, 101, -33
- CN1CC(=O)N(CCCC(=O)O)C1=O
    101, 0, 96, 7
- CCCCn1c(=S)[nH]c2ccccc21
    101, 12, 102, -12
- CCN(CC)S(=O)(=O)c1ccc2oc(C(=O)NC3CCCC(C)C3C)c(C)c2c1 (configuration not stated)
    103, -5, 101, -70
- O=C(CSc1nnc(CNC(=O)c2ccco2)o1)c1ccccc1
    105, -6, 98, 15
- CC(N)C12CC3CC(CC(O)(C3)C1)C2 (configuration not stated)
    105, -10, 102, .
- Cc1nc2ccc(C(=O)O)cc2nc1C
    90, ., 97, -9
- COc1ccc(/C=N/NC(=O)c2nnn(-c3nonc3N)c2C)cc1COc1ccc(F)cc1F
    104, 28, 99, -16

Additional results follow.
Each structure is followed by: PV pol inh intensity, MbtI inh, PV pol inh, Mtb MenB inh
- OC(CNCCNc1ncccc1C(F)(F)F)Cn1ccc2ccccc21 (configuration not stated)
    102, 3, 103, -15
- CC(=O)N1CCN(S(=O)(=O)c2ccc(C)cc2)C1C(C)C (configuration not stated)
    99, -1, 101, 29
- c1ccc(Cn2c(SCc3nc4ccccc4s3)nnc2C2CC2)cc1
    113, -7, 117, -38
- CCc1ccc(NC(=O)C(C)Sc2nnc(-c3ccccc3)o2)cc1 (configuration not stated)
    104, -76, 100, -4
- CCOc1ccccc1C1CC(=O)NC(C)=C1C(=O)OCC1CCCCC1 (configuration not stated)
    105, -11, 102, -18
- Fc1ccc(C=Nc2cc(Cl)cc(Cl)c2)cc1F
    99, -9, 102, .
- Cn1c(=O)c2cc(S(=O)(=O)NC(Cc3ccccc3)C(=O)NCc3ccco3)ccc2n(C)c1=O (configuration not stated)
    102, 0, 102, -16
- CC(C)NC(=O)C(Cc1ccccc1)N1C(=O)c2ccccc2C1=O (configuration not stated)
    102, ., 101, -17
- Cc1cc(I)cc(C)c1NC(=O)CSc1nnc(Cc2ccccc2)o1
    104, 3, 99, 3
- CC(C)(C)NC(=O)c1cccc(NC(=O)c2ccco2)c1
    105, 1, 104, -26
- CN(C)S(=O)(=O)c1ccc(N2CCNCC2)cc1
    101, 0, 102, -54
- NC(=O)C1CCN(Cc2nc3cc(C(F)(F)F)ccc3c(=O)[nH]2)CC1
    ., -4, ., -8

Assay outcomes: PubChem BioAssay, ICCB-Longwood Screening Facility, Harvard Medical School
